Screens (PubChem BioAssay)
Vaccinia stage: blocks a specific stage of Vaccinia orthopoxvirus infection; Vaccinia-infected cells, mCherry/Venus stage reporter fluorescence; active compounds read low; some inactives read as strong as hits; activity change (mCherry), % (concentration not given with the values); hit rate 0.01% among 89,000; AID 1053133;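 active means mCherry past -33% and 40 or more points under the early reporter, replicates agreeing; inconclusive means past -33% without that gap or agreement; tested in A549 cells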;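 further: scaled between vehicle wells and reference inhibitor wells; 23 nL library stock went into each well; one replicate is shown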
Vaccinia stage Venus: further read-out of Vaccinia stage, marked with its call; activity change (Venus), %; measured here: Venus reporter, other viral stage;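 negative = less Venus signal; first of two replicates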
* marks the source's active call; other numbers are inactive results; u = inconclusive; x = not tested or not shown. The list is partial (hit frequency here may not be typical).

SMILES | Vaccinia stage | Vaccinia stage Venus
O=C(C[C@@H]1CC[C@@H](NC(=O)Nc2ccc(F)cc2)[C@@H](CO)O1)NCCN1CCCC1 | 16.9 | 13.7
CC(C)NC(=O)N[C@H]1CC[C@@H](CC(=O)NC2Cc3ccccc3C2)O[C@H]1CO | 6.7 | 12.0
C[C@@H]1CN([C@H](C)CO)C(=O)c2cc(NC(=O)Nc3ccc4c(c3)OCO4)ccc2O[C@H]1CN(C)C(=O)Nc1cccc2ccccc12 | 16.5 | 8.8
C[C@@H]1CN([C@@H](C)CO)S(=O)(=O)c2ccc(-c3ccccc3)cc2O[C@H]1CN(C)Cc1ccncc1 | -18.7 | -14.8
C[C@@H]1CN([C@@H](C)CO)C(=O)c2cc(NC(=O)Nc3cccc4ccccc34)ccc2O[C@H]1CN(C)C(=O)NC1CCCCC1 | 8.1 | 4.1
C[C@H]1CN([C@@H](C)CO)S(=O)(=O)c2ccc(C#Cc3ccncc3)cc2O[C@@H]1CN(C)C(=O)C1CCOCC1 | u | x
C[C@@H]1CN([C@@H](C)CO)C(=O)c2cccc(NC(=O)C3CCOCC3)c2O[C@@H]1CN(C)S(=O)(=O)c1ccc(F)cc1 | 9.7 | 6.9
CC(C)NC(=O)Nc1ccc2c(c1)C(=O)N([C@@H](C)CO)C[C@@H](C)[C@H](CN(C)S(=O)(=O)c1ccc(Cl)cc1)OCCCC[C@@H](C)O2 | -23.3 | -15.6
CN(C)CCCNC(=O)C[C@H]1C=C[C@H](NS(=O)(=O)c2ccc(F)cc2)[C@H](CO)O1 | 6.1 | 1.3
C[C@H](O)C#Cc1ccc2c(c1)O[C@@H](CN(C)Cc1ccncc1)[C@H](C)CN([C@H](C)CO)S2(=O)=O | -8.5 | -6.5
CN1CCN(C(=O)C[C@H]2C[C@H]3c4cc(NC(=O)CC5CC5)ccc4O[C@H]3[C@H](CO)O2)CC1 | 11.6 | 11.6
N#Cc1ccc(-c2ccc([C@@H]3[C@H](CO)N4CCCCN(C(=O)Cc5ccccc5)C[C@@H]34)cc2)cc1 | u | x
COc1cccc(-c2cccc(-c3nc(C(=O)NCC(F)(F)F)cc4c3[C@@H](CCO)N([S@](=O)C(C)(C)C)C4)c2)c1 | u | x
C[C@H](CO)N1C[C@H](C)[C@@H](CN(C)Cc2cccc(C(F)(F)F)c2)OCc2cnnn2CCCC1=O | -12.1 | -13.5
C[C@@H]1CN([C@H](C)CO)C(=O)c2cc(NC(=O)C3CCCCC3)ccc2O[C@H]1CN(C)S(C)(=O)=O | 12.1 | 15.2
COc1ccc2c3c([nH]c2c1)[C@H](CO)N(C(=O)Cc1ccccc1)CC31CCN(C(=O)Nc2ccccc2F)CC1 | u | x
CS(=O)(=O)N1CC(=O)N2[C@H](C1)[C@H](c1ccc(Br)cc1)[C@@H]2CO | 9.5 | 17.2
O=C(c1cccnc1)N1CC(=O)N2[C@H](C1)[C@H](c1ccc(C#CCC3CCCC3)cc1)[C@@H]2CO | -29.9 | -56.9
C/C=C/c1ccc([C@H]2[C@@H](CO)N(C(=O)C3CCC3)C23CN(C(=O)NC(C)C)C3)cc1 | 6.8 | 10.1
COc1ccc(CN(C)C[C@H]2Oc3ccc(NC(=O)CCC(F)(F)F)cc3CC(=O)N([C@@H](C)CO)C[C@H]2C)cc1 | -8.2 | 2.7
Cc1ccc(S(=O)(=O)N(C)C[C@@H]2OCCCC[C@H](C)Oc3ccc(NC(=O)Nc4ccc5c(c4)OCO5)cc3C(=O)N([C@@H](C)CO)C[C@H]2C)cc1 | 5.7 | 13.5
CN(C)c1ccc2c(c1)[C@@H]1C[C@@H](CC(=O)NCc3ccncc3)O[C@@H](CO)[C@@H]1O2 | -3.9 | 1.0
Cc1noc(C)c1S(=O)(=O)Nc1ccc2c(c1)C(=O)N([C@H](C)CO)C[C@H](C)[C@H](CN(C)CC1CCCCC1)OCCCC[C@@H](C)O2 | -6.3 | -11.6
Cc1noc(C)c1NC(=O)Nc1ccc2c(c1)C(=O)N([C@@H](C)CO)C[C@H](C)[C@@H](CN(C)C(=O)Nc1c(C)noc1C)O2 | 9.4 | 6.2
C[C@H]1CN([C@@H](C)CO)C(=O)c2cc(C#Cc3ccccn3)cnc2O[C@H]1CN(C)Cc1cccnc1 | 15.2 | 10.4

Taken from above (7 entries):
SMILES | Vaccinia stage | Vaccinia stage Venus
C[C@@H]1CN([C@H](C)CO)C(=O)c2cc(NC(=O)Nc3ccc4c(c3)OCO4)ccc2O[C@H]1CN(C)C(=O)Nc1cccc2ccccc12 | 16.5 | 8.8
C[C@@H]1CN([C@@H](C)CO)S(=O)(=O)c2ccc(-c3ccccc3)cc2O[C@H]1CN(C)Cc1ccncc1 | -18.7 | -14.8
C[C@@H]1CN([C@@H](C)CO)C(=O)c2cc(NC(=O)Nc3cccc4ccccc34)ccc2O[C@H]1CN(C)C(=O)NC1CCCCC1 | 8.1 | 4.1
C[C@H]1CN([C@@H](C)CO)S(=O)(=O)c2ccc(C#Cc3ccncc3)cc2O[C@@H]1CN(C)C(=O)C1CCOCC1 | u | x
C[C@@H]1CN([C@@H](C)CO)C(=O)c2cccc(NC(=O)C3CCOCC3)c2O[C@@H]1CN(C)S(=O)(=O)c1ccc(F)cc1 | 9.7 | 6.9
CC(C)NC(=O)Nc1ccc2c(c1)C(=O)N([C@@H](C)CO)C[C@@H](C)[C@H](CN(C)S(=O)(=O)c1ccc(Cl)cc1)OCCCC[C@@H](C)O2 | -23.3 | -15.6
CN(C)CCCNC(=O)C[C@H]1C=C[C@H](NS(=O)(=O)c2ccc(F)cc2)[C@H](CO)O1 | 6.1 | 1.3

(next part)
SMILES | Vaccinia stage | Vaccinia stage Venus
C[C@@H]1CN([C@@H](C)CO)C(=O)c2cccc(NC(=O)Nc3ccccc3)c2O[C@@H]1CN(C)C(=O)Nc1ccccc1 | -29.6 | -18.0
C[C@H]1CN([C@@H](C)CO)C(=O)c2cc(NS(=O)(=O)c3ccc(F)cc3)ccc2O[C@H]1CN(C)Cc1ccccc1 | 2.6 | 7.5
NCC[C@H]1CC[C@@H](NC(=O)C2CCC2)[C@@H](CO)O1 | 0.1 | -10.7
C[C@H](CO)N1C[C@H](C)[C@@H](CN(C)C)Oc2ccc(NC(=O)Nc3ccccc3)cc2C1=O | 8.3 | 9.6
Cc1cccc(S(=O)(=O)N[C@H]2CC[C@@H](CCNC(=O)CCN3CCCCC3)O[C@@H]2CO)c1 | -2.8 | -2.4
C[C@H](CO)N1C[C@H](C)[C@@H](CN(C)Cc2cncnc2)Oc2cc(/C=C/c3ccccc3)ccc2S1(=O)=O | -34.4 | -26.7
C[C@H]1CN([C@@H](C)CO)C(=O)c2cc(C#CC3(O)CCCC3)cnc2O[C@H]1CN(C)C(=O)Cc1ccncc1 | 11.4 | 8.2
CN(C)CCCNC(=O)C[C@H]1CC[C@H](NC(=O)Cc2cccnc2)[C@H](CO)O1 | -5.5 | 8.2
COc1ccc(C(=O)N2C[C@@H]3[C@H](c4ccccc42)[C@@H](CO)N3Cc2ccccc2Cl)cc1 | -1.9 | 2.1
O=C(C[C@H]1C=C[C@H](NS(=O)(=O)c2ccc(F)cc2)[C@@H](CO)O1)NCCc1ccncc1 | 2.6 | 2.3
CCCN1[C@@H]2c3ccc(-c4ccc(OC)cc4)c(=O)n3C[C@@H]2[C@@H](CO)[C@@H]1C(=O)NCC | 21.2 | 13.4
CS(=O)(=O)N1[C@@H]2Cn3c(ccc(-c4ccc(F)cc4)c3=O)[C@H]1[C@@H](C(=O)NCC1CC1)[C@@H]2CO | -0.2 | 2.5
CN1C(=O)c2cc(NC(=O)c3cccc(F)c3)ccc2OC[C@H]2O[C@H](CC(=O)Nc3ccccc3)CC[C@@H]21 | -16.7 | -17.7
C[C@H](CO)N1C[C@H](C)[C@@H](CN(C)C(=O)Nc2ccc(C(F)(F)F)cc2)Oc2c(NS(=O)(=O)c3ccc(Cl)cc3)cccc2C1=O | 15.9 | 7.2
CN(C)C(=O)c1ccc(-c2ccc(C3[C@H]4CNC[C@@H]3N4S(=O)(=O)c3ccccc3)cc2)cc1 (stereo partly drawn) | 3.0 | 5.2
COc1ccc(S(=O)(=O)Nc2ccc3c(c2)C(=O)N([C@H](C)CO)C[C@H](C)[C@@H](CN(C)C(=O)CCCN(C)C)OCCCC[C@@H](C)O3)cc1 | 32.8 | 21.3
COc1ccccc1-c1cn(CC[C@H]2CC[C@H](NC(=O)NC(C)C)[C@H](CO)O2)nn1 | 0.1 | 10.6
COCC#Cc1ccc2c(c1)O[C@H](CN(C)S(=O)(=O)c1ccc(F)cc1)[C@H](C)CN([C@H](C)CO)S2(=O)=O | -27.6 | -22.5
O=C(C[C@H]1CC[C@@H](NC(=O)c2ccc(F)cc2)[C@@H](CO)O1)NCCc1ccccc1 | 1.1 | 2.6
Cc1ccc(S(=O)(=O)Nc2ccc3c(c2)C(=O)N([C@@H](C)CO)C[C@H](C)[C@@H](CN(C)C(=O)Nc2ccc(F)cc2)O3)cc1 | 9.6 | 9.4
CO[C@H]1CC[C@@H]2CCOc3ccc(C#N)cc3C(=O)N(C)C[C@H](OC)[C@@H](C)C(=O)N(C)C[C@@H]1O2 | 0.2 | -1.6
Cc1ccc(-c2ccc3c(c2)O[C@H](CN(C)Cc2ccncc2)[C@H](C)CN([C@@H](C)CO)S3(=O)=O)cc1 | u | x
CO[C@@H]1CN(C)C(=O)c2cc(NC(C)=O)ccc2OC[C@@H](C)N(S(=O)(=O)c2cn(C)cn2)C[C@@H]1C | 5.6 | 2.1
C[C@@H]1CN([C@@H](C)CO)C(=O)c2cc(NC(=O)Cc3cn(C)c4ccccc34)ccc2O[C@@H]1CN(C)Cc1ccc(C(F)(F)F)cc1 | u | x
COc1ccc(CNC(=O)C[C@H]2CC[C@H]3[C@H](COc4ccc(NC(C)=O)cc4C(=O)N3C)O2)cc1 | -2.4 | -3.0
New compounds follow:
SMILES | Vaccinia stage | Vaccinia stage Venus
C[C@H]1CN([C@@H](C)CO)C(=O)c2cc(NS(=O)(=O)c3cccs3)ccc2O[C@@H]1CN(C)Cc1ccc(C(=O)O)cc1 | 13.8 | 5.5
Cc1ccc(S(=O)(=O)N(C)C[C@H]2Oc3ncc(C#CCC(C)C)cc3C(=O)N([C@H](C)CO)C[C@@H]2C)cc1 | 0.0 | -0.8
COc1ccccc1-c1cnc2c(c1)C(=O)N([C@@H](C)CO)C[C@H](C)[C@@H](CN(C)C(=O)CC1CC1)O2 | -24.4 | -10.5
COCC(=O)Nc1ccc2c(c1)C(=O)N(C)C[C@H](OC)[C@H](C)CN(C(=O)C1CCCC1)[C@@H](C)CO2 | 5.3 | 0.5
O=C(C[C@H]1CC[C@H](NS(=O)(=O)c2cccc(F)c2)[C@@H](CO)O1)NCc1ccc2c(c1)OCO2 | -3.5 | 8.6
C[C@@H]1CCCCO[C@H](CN(C)Cc2ccc(C(F)(F)F)cc2)[C@@H](C)CN([C@H](C)CO)C(=O)c2cc(NS(=O)(=O)c3ccc(Cl)cc3)ccc2O1 | 3.7 | 3.2
C[C@@H]1CCCCO[C@H](CN(C)C(=O)CCC(F)(F)F)[C@@H](C)CN([C@H](C)CO)C(=O)c2cc(NS(=O)(=O)c3ccc(Cl)cc3)ccc2O1 | 7.5 | -7.5
COc1ccc(NC(=O)N(C)C[C@@H]2OCc3cnnn3CCCC(=O)N([C@@H](C)CO)C[C@H]2C)cc1 | 6.1 | 5.4
CS(=O)(=O)N1CC(=O)N2[C@H](C1)[C@H](c1ccc(C#Cc3ccc(F)cc3)cc1)[C@@H]2CO | u | x
O=S(=O)(NCC[C@@H]1CC[C@@H](NS(=O)(=O)c2ccccc2Cl)[C@H](CO)O1)c1ccc(Cl)cc1 | -23.7 | -17.0
COc1ccc(-c2cnc3c(c2)C(=O)N([C@H](C)CO)C[C@H](C)[C@H](CN(C)C(=O)NC2CCCCC2)O3)cc1 | -25.4 | -15.5
O=C(C[C@@H]1CC[C@H](NC(=O)C2CC2)[C@H](CO)O1)NCC1CC1 | -0.2 | 3.0
C[C@H](CO)N1C[C@H](C)[C@@H](CN(C)Cc2ccc(C(F)(F)F)cc2)Oc2ccc(NC(=O)C3CC3)cc2C1=O | -9.3 | -10.1
C[C@H](CO)N1C[C@H](C)[C@H](CN(C)Cc2ccc3c(c2)OCO3)Oc2ccc(NC(=O)Nc3ccc(F)cc3)cc2C1=O | -31.5 | -18.5
CC(C)NC(=O)Nc1ccc2c(c1)C(=O)N([C@H](C)CO)C[C@@H](C)[C@@H](CN(C)S(=O)(=O)c1ccc(Cl)cc1)OCCCC[C@H](C)O2 | 16.5 | 1.4
Cc1ccccc1S(=O)(=O)N1C[C@@H](O)COC[C@@H]2O[C@H](CC(=O)N3CCC(Cc4ccccc4)CC3)CC[C@H]21 | u | x
O=C(NCC[C@@H]1CC[C@@H](NC(=O)C2CCOCC2)[C@@H](CO)O1)c1cc(Cl)cc(Cl)c1 | 3.2 | 10.8
C[C@@H]1CN([C@H](C)CO)S(=O)(=O)c2ccc(-c3ccc(F)cc3)cc2O[C@H]1CN(C)C(=O)c1ccccc1F | u | x
C[C@@H]1CN([C@@H](C)CO)C(=O)Cc2cc(NS(=O)(=O)c3ccccc3)ccc2O[C@H]1CN(C)Cc1ccc(-c2ccccc2)cc1 | u | x
CC(C)NC(=O)N(C)C[C@H]1OCc2ccccc2-c2ccccc2C(=O)N([C@H](C)CO)C[C@H]1C | 32.5 | 24.0
CN1C[C@H]2[C@@H](c3ccccc31)[C@@H](CO)N2C(=O)Nc1cccc(F)c1 | -9.5 | -7.9
O=C(NCCc1ccncc1)[C@@H]1[C@@H](CO)[C@@H]2Cn3c(ccc(-c4ccncc4)c3=O)[C@H]1N2 | 2.9 | 1.1
CN1CCN(C(=O)C[C@H]2CC[C@H]3[C@@H](COC[C@@H](O)CN3C(=O)Cc3ccccc3)O2)CC1 | 1.2 | -2.5
O=C(C[C@@H]1C[C@H]2c3cc(NC(=O)C4CCOCC4)ccc3O[C@H]2[C@@H](CO)O1)NCc1ccccc1F | 20.4 | 14.0
O=C(NC[C@H]1[C@@H](c2ccccc2)[C@@H](CO)N1C(=O)Cc1cccnc1)C1CC1 | 21.1 | 21.9
CCCNC(=O)N1[C@H](C#N)[C@H](c2ccccc2-c2ccccc2)[C@@H]1CO | 10.6 | 11.8
